StopGo reporter: lowers the luciferase signal of an FMDV 2A StopGo reporter. human cells with a luciferase reporter of 2A StopGo recoding; control for the full effect not named in the record. 410,000 tested, 1.2% active. Potency, µM (doses to about 57.9 µM), without a hit: top-dose signal change, negative = less light; active = well fitted falling curve with a large enough effect; inconclusive = small, poorly fitted or top-dose-only effect; inactive = no such curve, though single readings can be large or run the other way; tested in HEK293T cells; note: % is set by controls: 0 for no effect and ±100 for the full control effect; nearly all actives have a fitted effect of over 45% in size; luciferase light after 4 h
Cruzain inh Det: cruzain (T. cruzi) inhibition with detergent; Potency, µM, for inactives: max response, negative = inhibition, actives largely listed as inhibitors; AID 1478; purified cruzain, Z-FR-AMC fluorescence, 0.01% Triton; P25779; 200,000 tested, 0.43% active; active = well fitted curve in the direction sought with a large enough effect; inconclusive = small, poorly fitted or top-dose-only effect, or another doubt; inactive = no such curve, though single readings can be large; an effect the other way counts as inactive or inconclusive;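 note: plate controls were neutral wells for no effect and buffer without enzyme for full effect; nearly all actives have a fitted effect of over 40% in size; top concentration of the series not given in the record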
Target sequence (P25779 123-467 limits assumed): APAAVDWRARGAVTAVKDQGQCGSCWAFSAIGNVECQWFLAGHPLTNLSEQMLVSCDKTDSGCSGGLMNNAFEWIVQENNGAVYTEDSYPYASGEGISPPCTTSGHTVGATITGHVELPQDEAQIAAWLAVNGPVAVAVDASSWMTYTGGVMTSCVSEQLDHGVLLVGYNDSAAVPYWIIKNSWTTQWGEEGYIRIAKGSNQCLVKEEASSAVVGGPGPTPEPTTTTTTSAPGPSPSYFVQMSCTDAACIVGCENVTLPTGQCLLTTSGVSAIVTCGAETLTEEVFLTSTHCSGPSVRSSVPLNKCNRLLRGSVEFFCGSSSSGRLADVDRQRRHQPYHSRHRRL
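Sodium acetate buffer (100 mM, pH 5.5) containing 5 mM DTT and 0.01% Triton X-100 hosted 1.5 nM cruzain and test compound for 15 min at room temperature. Cleavage of 2 uM Z-FR-AMC was then tracked by fluorescence.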
Marburg entry inh: blocks Marburg virus binding to or entry into cells; Marburg virus pseudotyped entry inhibition, cell reporter; control for the full effect not named in the record; about a third of the inactives were read at about 46 µM; Potency, µM (highest dose often 37.8 µM), for the others: at the top dose activity change, negative = inhibition, most hits filed as inhibitors; 300,000 tested, 1.8% active; AID 540276; active = well fitted inhibition curve with a large enough effect; inconclusive = small, poorly fitted or top-dose-only effect, or effect the other way; inactive = flat fitted curve, though single readings scatter; tested in HEK293 cells; about a fifth of its hits are not listed in these tables; note: % is set by controls: 0 for no effect and ±100 for the full control effect; luciferase read-out
SARS PLpro yeast: blocks SARS-CoV papain-like protease in a yeast assay; S. cerevisiae expressing SARS-CoV PLpro, growth rescue; control for the full effect not named in the record; Potency, µM (series often up to 32.9 µM), for the others: top-dose activity, positive = growth rescue; 330,000 tested, 0.19% active; note: 0% is about no effect; nearly all actives have a fitted effect of over 55% in size; growth read by luminescence after 48 h
Cruzain inh noDet: inhibitors of Trypanosoma cruzi cruzain without detergent; 200,000 tested, 2.3% active; P25779; Potency, µM, without a hit: max response, negative = inhibition, hits mostly inhibitors; purified cruzain, Z-FR-AMC fluorescence, no detergent; AID 1476; active = well fitted curve in the direction sought with a large enough effect; inconclusive = small, poorly fitted or top-dose-only effect, or another doubt; inactive = no such curve, though single readings can be large; an effect the other way counts as inactive or inconclusive;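 note: plate controls were enzyme without inhibitor for no effect and buffer without enzyme for full effect; nearly all actives have a fitted effect of over 40% in size; top concentration of the series not given in the record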
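Purified cruzain at 1.5 nM, pre-incubated 15 min with compound at room temperature in 100 mM sodium acetate pH 5.5, 5 mM DTT, 0.00005% Triton X-100. Reaction started with 2 uM Z-FR-AMC; AMC fluorescence increase over 60 s gives rate.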
Lassa entry inh: blocks Lassa virus binding to or entry into cells; Lassa virus pseudotype entry inhibition, cell reporter; control for the full effect not named in the record; Potency, µM (titrated, usually from 37.9 µM), inactives show at the highest dose activity change, negative = inhibition, hits mostly inhibitors; 300,000 tested, 1.2% active; AID 540256; active means well fitted inhibition curve with a large enough effect; inconclusive means small, poorly fitted or top-dose-only effect, or effect the other way; inactive means flat fitted curve, though single readings scatter; tested in HEK293 cells; note: % is set by controls: 0 for no effect and ±100 for the full control effect; nearly all actives have a fitted effect of over 50% in size; luciferase read-out
RE007 growth inh: less growth of the S. pombe RE007 Vpr strain; Potency, µM (titrated, usually from 92.2 µM), for inactives: top-dose activity change, negative = less growth; S. pombe RE007 Vpr strain, BacTiter-Glo ATP luminescence, 24 h; control for the full effect not named in the record; 360,000 tested, 0.21% active; active = well fitted falling curve with a large enough effect; inconclusive = small, poorly fitted or top-dose-only effect; inactive = no such curve, though single readings can be large or run the other way;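 note: % is set by controls: 0 for no effect and ±100 for the full control effect; nearly all actives have a fitted effect of over 50% in size; the assay follows cell death caused by Vpr and the record does not say whether a fall means rescue or toxicity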
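Fission yeast RE007 carrying one integrated HIV-1 vpr copy, seeded at OD 0.01 in PMG+AL medium with 23 nL pinned compound. Grown 24 h at 30 degrees; viability read by BacTiter-Glo luminescence after 5 min.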
NS1 inh: influenza NS1 inhibition. Potency, µM (doses to about 46.1 µM), without a hit: at the highest dose activity, positive = more growth. S. cerevisiae slowed by influenza A NS1, growth recovery by OD600. 270,000 tested, 0.4% active. AID 2326; note: actives are rising curves; nearly all actives have a fitted effect of over 50% in size
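Read-out: OD600 growth recovery of NS1-expressing budding yeast. Cells grown overnight at 30C in -URA glucose medium, washed, resuspended and diluted 1:100 in 2% galactose assay medium, pH 6.0. Same strain lacking NS1 served as positive control.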
Active calls of the source: *; & = joins results of further samples; [ ] = another dose, or the depositor's remark. Unless noted, calls come from the whole dose curve; as a rule, active means well fitted rising curve with a large enough effect; inconclusive means small, poorly fitted or top-dose-only effect; inactive means no such curve, though single readings can be large or run the other way. Potency is the fitted concentration of half-maximal effect. No enrichment for hits, and some 4.6% of all compounds hit somewhere here.

What do the screens show for `COc1ccc(OC)c(/C=N/NC(=O)c2c(C)nc3ccc(C)cn23)c1`?
StopGo reporter: -7%; SARS PLpro yeast: 0%; RE007 growth inh: -5%; NS1 inh: 0%

How did CCc1nc(NCc2cccnc2)c2oc3ccccc3c2n1 do in these assays?
StopGo reporter: -28%; Cruzain inh Det: 2.0%; Marburg entry inh: -19%; SARS PLpro yeast: -4%; Cruzain inh noDet: 3%; Lassa entry inh: inconclusive; RE007 growth inh: -11%; NS1 inh: -22%

What do the screens show for `Cc1ccc(NC(=O)CCNC(=O)c2ccc(Cl)cc2)cc1F`?
StopGo reporter: 12%; Cruzain inh Det: -1.0%; Marburg entry inh: inconclusive; SARS PLpro yeast: 2%; Cruzain inh noDet: -26%; Lassa entry inh: -6%[46.1 µM]; RE007 growth inh: -15%; NS1 inh: -9%

What do the screens show for `Cc1ccc(C(=O)Nc2cccc(C(F)(F)F)c2)cc1NC(=O)c1nccnc1N`?
StopGo reporter: inconclusive; SARS PLpro yeast: -1%; RE007 growth inh: 2%&2%; NS1 inh: 1%

How did CC12CCC(C(=O)Nc3ccccc3)(C(Br)C1=O)C2(C)C (stereo not given) do in these assays?
StopGo reporter: -29%; Cruzain inh Det: -0.3%; Marburg entry inh: inconclusive; SARS PLpro yeast: 1%; Cruzain inh noDet: -2%; Lassa entry inh: -2%; RE007 growth inh: -9%; NS1 inh: 14%

Results for COC(=O)/C(=C1/Oc2ccc(C(C)(C)C)cc2S1)C(F)(F)F ?
StopGo reporter: 44%[activator]; Cruzain inh Det: -9.8%; Marburg entry inh: 2%; SARS PLpro yeast: 0%; Cruzain inh noDet: -2%; Lassa entry inh: -1%; RE007 growth inh: 1%; NS1 inh: -9%

What do the screens show for `O=C(c1ccc(Cl)c(S(=O)(=O)N2CCCC2)c1)N1CCCCC1`?
StopGo reporter: 5%; Marburg entry inh: -20%; SARS PLpro yeast: 1%; Lassa entry inh: -1%; RE007 growth inh: -8%; NS1 inh: 0%

Results for O=C(CSc1nc2c(c(=O)n1-c1ccc(Cl)cc1)SCC2)N1CCOCC1 ?
StopGo reporter: -17%; Cruzain inh Det: 0.1%; Marburg entry inh: 2%; SARS PLpro yeast: 3%; Cruzain inh noDet: -2%; RE007 growth inh: 0%; NS1 inh: 6%

Results for CCC(C)(C)NC(=O)c1cc(OC)c(OC)cc1[N+](=O)[O-] ?
StopGo reporter: -9%; Cruzain inh Det: -0.3%; Marburg entry inh: 6%; SARS PLpro yeast: -3%; Cruzain inh noDet: -1%; Lassa entry inh: 6%; RE007 growth inh: -7%; NS1 inh: 11%

How did Cc1nnc(NC(=O)CSc2ccc(-c3ccco3)nn2)s1 do in these assays?
StopGo reporter: 12%; Marburg entry inh: inconclusive; SARS PLpro yeast: -6%; Lassa entry inh: 8%; RE007 growth inh: 13%

How did Cc1cc(C)c(C(=O)OCC(=O)NC(=O)c2ccccc2)c(C)c1 do in these assays?
StopGo reporter: -5%; Marburg entry inh: 18%; SARS PLpro yeast: 1%; Lassa entry inh: -2%; RE007 growth inh: 4%

Results for Cc1cc(C)cc(-n2c(SCC(=O)Nc3ccc4c(c3)OCCO4)nc3c([nH]c4ccccc43)c2=O)c1 ?
StopGo reporter: -38%; Cruzain inh Det: -0.3%; Cruzain inh noDet: inconclusive; Lassa entry inh: 7%[46.1 µM]

Results for COc1ccc(OC)c(NC(=O)c2ccc(-c3nc(CSc4ccccc4)c(C)o3)cc2)c1 ?
StopGo reporter: inconclusive; Cruzain inh Det: -4.0%; Cruzain inh noDet: -19%; Lassa entry inh: 3%[46.1 µM]

How did O=C(CN1C(=O)/C(=C\c2ccccc2F)SC1=S)Nc1nc2ccccc2s1 do in these assays?
StopGo reporter: 5%; Cruzain inh Det: -9.2%; Marburg entry inh: -3%; SARS PLpro yeast: 8%; Cruzain inh noDet: 7.9µM*; Lassa entry inh: 2%; RE007 growth inh: 7%; NS1 inh: 3%

Results for O=C(Nc1ccc2c(c1)OCO2)c1c[nH]c(=O)n(-c2ccc(F)cc2)c1=O ?
StopGo reporter: 13%; Marburg entry inh: 4%; SARS PLpro yeast: -6%; Lassa entry inh: 7%; RE007 growth inh: 36%; NS1 inh: 3%

How did COc1ccc(C2NC(C(=O)O)CS2)cc1COCC(F)(F)F (stereo not given) do in these assays?
StopGo reporter: 3%; Cruzain inh Det: -0.2%; Marburg entry inh: 11%; SARS PLpro yeast: 15%; Cruzain inh noDet: -9%; Lassa entry inh: -3%; RE007 growth inh: 4%; NS1 inh: -9%

How did CC1(C)CC(=O)C=C(Nc2ccc(F)cc2)C1 do in these assays?
StopGo reporter: -9%; Cruzain inh Det: 1.9%; Marburg entry inh: inconclusive; SARS PLpro yeast: 1%; Cruzain inh noDet: -2%; Lassa entry inh: 3%; RE007 growth inh: -6%; NS1 inh: -4%

Results for CC(=O)NC1(c2ccccc2)CCN(CC(=O)N2CCC(C)CC2)CC1 ?
StopGo reporter: -4%; SARS PLpro yeast: 0%; RE007 growth inh: -9%; NS1 inh: 3%

How did COc1ccc(SC[C@H](CC(C)C)N2CCN(CCc3ccccc3)CCC2=O)cc1 do in these assays?
StopGo reporter: 1%; SARS PLpro yeast: 1%; RE007 growth inh: 9%; NS1 inh: -10%

Results for CN(Cc1ccccc1)C(=O)COc1ccccc1Cl ?
StopGo reporter: 26%; SARS PLpro yeast: -1%; RE007 growth inh: 16%; NS1 inh: -3%

What do the screens show for `CCOc1cc2[nH]c(=O)n(Cc3ccc(C(=O)NCCOC)cc3)c(=O)c2cc1OCC`?
StopGo reporter: -15%; Cruzain inh Det: -3.9%; SARS PLpro yeast: 9%; Cruzain inh noDet: inconclusive; RE007 growth inh: 8%; NS1 inh: 11%

What do the screens show for `COC(=O)c1cc(C(=O)NCCCN2CCOCC2)cc([N+](=O)[O-])c1`?
StopGo reporter: -21%; Marburg entry inh: 20%[46.1 µM]; SARS PLpro yeast: 1%; Lassa entry inh: 0%; RE007 growth inh: 15%; NS1 inh: 4%

What do the screens show for `CCO[C@H]1OC(C(=O)N2CCN(Cc3ccc4c(c3)OCO4)CC2)=C[C@@H](C2CCCCC2)[C@@H]1CCCO`?
StopGo reporter: 0%; SARS PLpro yeast: 0%; RE007 growth inh: 4%; NS1 inh: -14%

How did Cc1cc(C)c2c(N=NN(C)C)[nH]nc2n1 do in these assays?
StopGo reporter: 22%; Cruzain inh Det: -5.3%; Marburg entry inh: inconclusive; SARS PLpro yeast: -23%; Cruzain inh noDet: -8%; Lassa entry inh: 13%; RE007 growth inh: -10%; NS1 inh: -120%

What do the screens show for `COc1cc(OC)cc(-c2nc(-c3cc4cc(C)ccc4nc3OC)no2)c1`?
StopGo reporter: 10%; Cruzain inh Det: 3.3%; Marburg entry inh: 1%; SARS PLpro yeast: 14%; Cruzain inh noDet: 22%; Lassa entry inh: 21%; RE007 growth inh: -6%; NS1 inh: inconclusive

Results for COc1ccc(SCc2noc(C(=O)NC(C)C)c2C(=O)O)cc1 ?
StopGo reporter: -5%; Cruzain inh Det: 1.4%; SARS PLpro yeast: inconclusive; Cruzain inh noDet: -6%; RE007 growth inh: -5%; NS1 inh: 14%

Results for CSc1nc2sccc2c(=O)[nH]1 ?
StopGo reporter: 22%; Marburg entry inh: -1%[46.1 µM]; SARS PLpro yeast: 1%; Lassa entry inh: -4%[46.1 µM]; RE007 growth inh: 2%

What do the screens show for `Cc1ccc(C)c(NC(=O)CSc2cccc3cccnc23)c1`?
StopGo reporter: -16%; Marburg entry inh: -4%; SARS PLpro yeast: 3%; Lassa entry inh: 4%; RE007 growth inh: 9%; NS1 inh: -24%

How did CC(=O)Oc1ccc(C(C)=O)c2c1OCCO2 do in these assays?
Cruzain inh Det: 5.4%; Marburg entry inh: 10%; SARS PLpro yeast: 10%; Cruzain inh noDet: 7%; Lassa entry inh: 0%; RE007 growth inh: 3%; NS1 inh: 6%

Results for COc1cc(NC(=O)COC(=O)CCc2cc(OC)c(OC)c(OC)c2)cc(OC)c1 ?
StopGo reporter: -8%; Marburg entry inh: 9%; SARS PLpro yeast: -1%; Lassa entry inh: inconclusive; RE007 growth inh: -5%; NS1 inh: 0%

Results for COc1ccc(NC(=O)CC23CC4CC(CC(C4)C2)C3)cn1 ?
StopGo reporter: 12%; Marburg entry inh: 0%[46.1 µM]; SARS PLpro yeast: -7%; Lassa entry inh: 5%; RE007 growth inh: 12%

What do the screens show for `CC1CCC(NC(=O)c2ccc(NS(=O)(=O)c3ccc4[nH]c(=O)[nH]c4c3)cc2)CC1` (stereo not given)?
StopGo reporter: 36%[activator]; Marburg entry inh: inconclusive; Lassa entry inh: -6%; RE007 growth inh: 33%

How did COc1ccccc1C(=O)NC(CCSC)C(=O)NCC(c1ccco1)N(C)C (stereo not given) do in these assays?
StopGo reporter: 3%; Cruzain inh Det: -24%; Marburg entry inh: inconclusive; SARS PLpro yeast: 0%; Cruzain inh noDet: -13%; Lassa entry inh: -2%; RE007 growth inh: -13%; NS1 inh: 0%

How did CCn1c2ccccc2c2nnc(SCC(=O)NCCOC)nc21 do in these assays?
StopGo reporter: -3%; Cruzain inh Det: -2.2%; Marburg entry inh: 2%; SARS PLpro yeast: -2%; Cruzain inh noDet: -5%; Lassa entry inh: 9%; RE007 growth inh: -3%; NS1 inh: 0%

How did O=S(=O)(Nc1ccccn1)c1cccc(S(=O)(=O)c2ccc(Cl)cc2)c1 do in these assays?
StopGo reporter: 77%[activator]; Marburg entry inh: -17%[46.1 µM]; SARS PLpro yeast: 0%; Lassa entry inh: -15%; RE007 growth inh: 3%

How did CCOc1cccc(-c2c(C(=O)N/N=C/c3ccncc3)nnn2-c2nonc2N)c1 do in these assays?
StopGo reporter: 31%[activator]; Marburg entry inh: inconclusive; SARS PLpro yeast: 2%; Lassa entry inh: -5%[46.1 µM]; RE007 growth inh: -5%; NS1 inh: -2%

Results for CCc1cccc(NC(=O)c2sc3nc[nH]c(=O)c3c2C)c1 ?
StopGo reporter: 7%; Cruzain inh Det: -7.0%; Cruzain inh noDet: 11%; Lassa entry inh: -5%[46.1 µM]

What do the screens show for `Nc1c(C(=O)OC2CCCCC2)c2nc3ccccc3nc2n1CC1CCCO1` (stereo not given)?
StopGo reporter: -16%; Cruzain inh Det: -18%; Marburg entry inh: inconclusive; SARS PLpro yeast: -7%; Cruzain inh noDet: 4%; Lassa entry inh: -26%; RE007 growth inh: 18%; NS1 inh: -124%
